Source: PubChem BioAssay
Ba CapD inh: inhibitors of Bacillus anthracis CapD enzyme. 140,000 tested, 0.23% active. z-score (no concentration beside the values). AID 492967. purified CapD enzyme, fluorescence intensity read-out; stronger effect = lower value; some hits fall short of the stated cut;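 active = z-score under -4 in either of two replicates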;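 also: stock transfer was 100 nL into about 40 µL; score is relative to mean and spread of the plate; one replicate is shown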
AID504770: E. coli YBA685 growth inhibition, screen for V. cholerae RctB inhibitors. E. coli YBA685 rctB-dependent plasmid, OD600 growth, 3 h; stronger effect = lower value. z-score (test concentration not listed). 130,000 tested, 0.27% active;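 active = z-score under -2 on both plates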;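 also: wells of about 30 µL received 100 nL stock; score is relative to mean and SD of the test wells; the first replicate is given; strong numbers were not always called active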
An asterisk follows results filed as active; nt = not tested or not shown; & = joins results of further samples.

Under each structure – Ba CapD inh	AID504770
CC(C)C12CN3CC(C(C)C)(CN(C1)C3c1ccc(N(C)C)cc1)C2=O (stereo not drawn)
    0.255	nt
CC1CCN(c2cn[nH]c(=O)c2Br)CC1
    nt	0
CCOC(=O)c1cc(CN)c(C)o1
    nt	-0.3
Cn1nc(C(=O)NCCN2CCC(Cc3ccccc3)CC2)c2c1-c1ccccc1OC2
    -0.09	-0.5
CN1CCC(N(C2CC2)S(=O)(=O)c2ccccc2S(C)(=O)=O)CC1
    -0.93	nt
O=C(CCCn1c(=O)[nH]c2ccccc2c1=O)NC1CC1
    0.335	-0.75
Nn1c(SCC(=O)N2CCc3ccccc32)nnc1C(F)(F)F
    nt	-0.55
O=C(CSc1nc2ccsc2c(=O)n1Cc1ccccc1)NC1CCCC1
    -0.01	0
O=C(COc1cc(C(F)(F)F)cc(C(F)(F)F)c1)Nc1ccc2c(c1)OCO2
    nt	-0.9
CC1=C(C(=O)OCc2ccccc2)C(/C=C/c2ccccc2)N2C(=O)CCSC2=N1 (stereo not drawn)
    -0.325	-0.55
CCc1cc2c(COC(=O)C3CC(=O)N(Cc4ccco4)C3)cc(=O)oc2cc1O (stereo not drawn)
    nt	0.8
COc1ccc(CCNC(=O)c2cc3c(=O)n(C)c4ccccc4c3n2C)cc1OC
    0.105	0.55
O=C(Nc1ccc(F)cc1F)c1ccc(=O)n(Cc2cccc(Cl)c2)c1
    -0.085	nt
COC(=O)c1ccc2c(=O)n(CCO)c(SCCOc3ccc(Br)cc3)nc2c1
    nt	-1.45
C=C1SC(Nc2ccc(C)cc2C)=NC1(CC)CC
    0.055	1.3

Next compounds:
Under each structure – Ba CapD inh	AID504770
Cn1c(SCC(=O)NC2CC2)nnc1-c1cccs1
    -1.5	1.95
CCC(NC(=O)c1ccccc1)c1ccccc1 (stereo not drawn)
    nt	0.2
COc1ccc(-c2noc(CN3CCC(C(=O)Nc4ccccc4)CC3)n2)cc1OC
    -0.385	0.95
CC1=NN(c2ccccc2)C(=O)/C1=C/N(C)C
    -0.26	nt
COc1ccc(Oc2ncccc2[N+](=O)[O-])cc1
    -0.685	nt
CC1(C)NC(=O)c2ccccc2O1
    0.325	-0.3
COc1ccc(CNC(=O)CN2CCC(=O)CC2)cc1
    nt	-0.25
O=C(NCCN1CCOCC1)c1cc2c(s1)-c1ccccc1OC2
    103	1.05
COC(=O)c1ccc(C(=O)O)s1
    nt	-0.6
C=CCNc1nc(Nc2ccc(-c3nc4ccccc4o3)cc2)nc(OCC)n1
    -0.81	-1.75
CCC(C)NC(=O)c1ccc(NC(=O)C2=C(C)OCCS2)cc1 (stereo not drawn)
    0.11	0.35
O=C(CC(SCCO)c1ccc(OC(F)F)cc1)c1ccco1 (stereo not drawn)
    -0.705	nt
CC1(C(=O)O)CCC(C(=O)N2CCCCC2)C1(C)C (stereo not drawn)
    nt	-0.65
Cc1cccc(NC(=O)CSc2nc3c(cc2C#N)C(=O)CC(C)(C)C3)c1
    -0.07	-0.1
CC1CCCCN1C(=O)CCn1c(=S)oc2ccccc21 (stereo not drawn)
    0.19	-0.45

Whole records, quoted from the list:
`Cc1cccc(NC(=O)CSc2nc3c(cc2C#N)C(=O)CC(C)(C)C3)c1` is entered as Ba CapD inh = -0.07; AID504770 = -0.1
`CC1(C(=O)O)CCC(C(=O)N2CCCCC2)C1(C)C` (stereo not drawn) is entered as Ba CapD inh = nt; AID504770 = -0.65
`CCC(NC(=O)c1ccccc1)c1ccccc1` (stereo not drawn) is entered as Ba CapD inh = nt; AID504770 = 0.2

The list continues.
Under each structure – Ba CapD inh	AID504770
CC1(C)CC(NS(=O)(=O)c2ccc(F)cc2)CC(C)(C)N1
    0.81	0.25
CC(=O)N1CCc2cccc(NS(=O)(=O)c3ccc(S(C)(=O)=O)cc3)c21
    -0.595	nt
CC(C)(C)OC(=O)N1CCCN(C(=O)OCc2nc(-c3ccc(Cl)cc3)cs2)CC1
    -0.48	nt
COc1ccc(C2C(C#N)=C(N)Oc3c2c(-c2ccccc2)nn3C)c(Cn2cnc([N+](=O)[O-])n2)c1 (stereo not drawn)
    0.725	nt
COc1ccccc1N1CCN(C2C3CC4CC(C3)CC2C4)CC1 (stereo not drawn)
    -0.07	-0.85
Cc1c(C)c(C)c(CSC(=N)N)c(C)c1C
    0.74	-0.85
N#C/C(=C\c1cc2ccccc2nc1N1CCOCC1)C(=O)Nc1ccc2c(c1)OCCO2
    nt	1.8
O=C(CCN1C(=O)c2ccccc2S1(=O)=O)Nc1cccc(C(=O)O)c1
    -0.315	0.6
COc1ccc(S(=O)(=O)NC23CC4CC(C2)CC(C(=O)O)(C4)C3)cc1
    nt	0.05
COc1ccc(-c2nnc(N)s2)cc1
    nt	-0.1
CC(C)(C)NC(=O)Cn1cc(S(=O)(=O)Cc2ccccc2)c2ccccc21
    nt	1.65
CCCOc1cc(OCCC)c2c3c(c(=O)oc2c1)CCCC3
    10.9	nt
CCOc1ccc(N2C(=O)/C(=C\c3ccc(-c4ccc([N+](=O)[O-])cc4)o3)C(=O)NC2=S)cc1
    -0.235	nt
Cc1cc(C)nc(SCc2ccccc2C(=O)N2CCN(C(=O)c3ccco3)CC2)n1
    nt	-0.85
Cc1ccc2c(c1)CCCN2C(=O)c1ccc2c(c1)OCO2
    -0.54	-0.05

Individual results from the results shown.
Under AID504770, CCC(NC(=O)c1ccccc1)c1ccccc1 (stereo not drawn) has the entry 0.2
Under AID504770, Cn1c(SCC(=O)NC2CC2)nnc1-c1cccs1 has the entry 1.95

Further compounds.
Under each structure – Ba CapD inh	AID504770
O=C(Nc1ccccc1)c1cnc2sccn2c1=O
    -0.165	-0.35
CCc1nnc(NC(=O)CCc2nc(C3=CCN(C)CC3)no2)s1
    0.44	-1.2
C=C(C)Cn1c(CCNC(=O)CCC)nc2ccccc21
    -0.795	-0.55
CC(C)(C)C(=O)COC(=O)c1sc2ccccc2c1Cl
    0.035	-0.1
O=C1CC(c2ccccc2)N=C(SCC(=O)Nc2ccccc2)N1 (stereo not drawn)
    1.18	0.55
Cc1ccc(Nc2n[nH]c(=S)s2)c(C)c1
    -1.01	nt
CCn1c(=O)c2c(O)cc(=O)oc2c2ccccc21
    -0.46	0.95
CCCn1c(=S)[nH]c2ccccc21
    0.28	-0.8&-0.6
CC(C)NS(=O)(=O)c1ccc(OCC(=O)NC2CCCCC2)c(Cl)c1
    -0.6	-0.8
CSC(=Nc1ccc(Cl)cc1)N(C)C
    0.505	0.05
O=c1c(N2CCCCC2)coc2ccccc12
    -0.575	0.5
Nc1cc(=O)[nH]c(SCC(=O)NC2CCCCC2)n1
    0.095	-0.6
Cc1cc(=O)nc2c3ccccc3n(CC(=O)N3CCCCC3)n12
    2.48	-0.05
O=C(NCC1CCCO1)c1ccc(CS(=O)(=O)c2ccc(Cl)cc2)o1 (stereo not drawn)
    0.03	2.3
COc1ccc(N2CC(O)(c3cccc([N+](=O)[O-])c3)[N+]3=C2SCCC3)cc1 (stereo not drawn)
    0.07	nt

Other results follow.
Under each structure – Ba CapD inh	AID504770
COc1ccc(-c2noc(N3CCC(C(=O)NC(C)CCc4ccccc4)CC3)n2)cc1 (stereo not drawn)
    -0.415	0.1
Cc1ccc2nc(C)cc(C(=O)OCC(=O)C(C)(C)C)c2c1
    64.5	0.8
COc1ccc(CN2CCN(C(=O)CN3C(=O)C4C5C=CC(C5)C4C3=O)CC2)c(OC)c1OC (stereo not drawn)
    -0.81	2.6
N[C@@H](Cc1cc(I)c(Oc2ccc(O)c(I)c2)c(I)c1)C(=O)O
    0	-0.1
CC1(C)C2CCC1(C)C(O)C2CC(=O)NCc1cccs1 (stereo not drawn)
    -1.01	nt
N#Cc1nc2c(-c3nc4ccccc4s3)c(N)n(CCc3ccccc3)c2nc1C#N
    0.35	-0.95
CC(NC(N)=O)C(=O)OCc1ccc(Cl)cc1Cl (stereo not drawn)
    nt	1.3
Cc1ccc(NC(=O)c2ccc3noc(-c4ccccc4)c3c2)c(C)c1
    0.36	-0.9
Cc1cccc(NC(=O)CSc2cccc[n+]2[O-])c1C
    nt	-0.3
CN(C1CCN(Cc2c(Cl)cccc2Cl)C1)S(=O)(=O)c1ccc(F)c(F)c1 (stereo not drawn)
    0.455	nt
COC(=O)CCc1csc(N)n1
    nt	0.15
CCOC(=O)C1=C(C)NC2=C(C(=O)C(C(=O)OCC)C(c3ccccc3OC)C2)C1c1ccc(O)c(OC)c1 (stereo not drawn)
    0.4	nt
c1ccc2c(c1)c1ccccc1c1nn3nnnc3nc21
    0.655	-0.5
Cc1nc2ccccc2c(=O)n1-c1ccc(C(=O)NC2(C)CCS(=O)(=O)C2)cc1 (stereo not drawn)
    nt	1.9
CC(C)(C)C(=O)Cn1nnc(-c2cc(Cl)cc(Cl)c2)n1
    -0.47	nt

Further results follow.
Under each structure – Ba CapD inh	AID504770
CCC(C)(C)C(=O)Nc1ccc(Cl)cc1
    nt	-0.4
O=C1NC(=O)/C(=C/C(=O)c2ccccc2)S1
    nt	0.55
O=C(Cc1nc2ccccc2o1)c1cccnc1
    0.89	0.5
Cc1cc(C)cc(Oc2coc3cc(O)ccc3c2=O)c1
    19.5	-0.6
CCOc1ccc(NC(=O)c2cc3ccccc3o2)cc1
    -0.54	1.75
O=c1c2ccc(N3CCOCC3)c3cccc(c32)c2nc3ccccc3n12
    nt	-1.75
NCCS(=O)(=O)N1CCCC1
    nt	-0.35
Cc1c(C(=O)N2CCOCC2)[nH]c2c1C(=O)CC(c1ccccc1Cl)C2 (stereo not drawn)
    -0.245	-0.65
O=C(COC(=O)Cn1nnc(-c2ccccc2)n1)Nc1nc(-c2ccccc2)cs1
    nt	-0.55
Cc1nc2ccccc2n1CCc1nc2c3ccccc3nc(=S)n2[nH]1
    -0.545	-0.45
Cc1ccc2c(nc3s/c(=C\c4ccc(-c5ccccc5F)o4)c(=O)n32)c1C
    0.64	-0.05
CC(=O)CC(=O)Nc1ccccc1Cl
    -0.68	nt
COC(=O)C1C(=O)NC(SCC(=O)Nc2nccs2)=C(C#N)C1c1ccc(Cl)cc1 (stereo not drawn)
    4.02	nt
C=CCn1c(C2CCS(=O)(=O)C2)n[nH]c1=S (stereo not drawn)
    nt	-0.35
O=C(OCc1nccn1Cc1ccccc1)N1CCC(C(O)(c2ccccc2)c2ccccc2)CC1
    -0.26	nt

Continued.
Under each structure – Ba CapD inh	AID504770
O=S(=O)(c1ccc(-n2c(-c3ccncc3)n[nH]c2=S)cc1)N1CCCCC1
    -0.595	nt
O=C(Nc1ccccc1)N(Cc1ccco1)Cc1cccs1
    -0.315	-0.55
CCC1(CO)COC(c2ccco2)OC1 (stereo not drawn)
    nt	-0.75
COc1ccc(CN2COc3ccc(OC)cc3C2)cc1
    0.345	-0.85
Cc1ccc(CNC(=O)c2ccc(N3CCCS3(=O)=O)cc2)cc1
    0.84	0.35
Cc1ccc(OCCc2csc(N)n2)cc1
    nt	-1.7
CC1CCCN(C(=O)COC(=O)COc2ccc(Cl)cc2)C1 (stereo not drawn)
    0.28	1.05
COc1ccc(/C=C(\C#N)C(=O)OC(C)(C)C)cc1
    -0.79	0.8
Cc1cc(OCC(=O)NCc2ccco2)cc(C)c1Cl
    -0.825	2.05
O=C1CCN(C(=O)Cc2ccc(NS(=O)(=O)c3ccc(F)cc3)cc2)CC1
    nt	-0.15
O=C1/C(=C/c2ccc(-c3ccc(Br)cc3)o2)C=C(c2ccccc2)N1c1ccccc1O
    0.505	nt
C=CCNc1oc(-c2ccccc2C)nc1C#N
    110	0.2
Nn1c(COc2ccccc2)nnc1SCc1cc(=O)[nH]c2ccccc12
    -0.1	-1.05
CC1(C)C2CC[C@]3(C)C(C(=O)C=C4[C@@H]5C[C@@](C)(C(=O)O)CC[C@]5(C)CC[C@]43C)[C@@]2(C)CC[C@@H]1OC(=O)CCC(=O)O (stereo partly drawn)
    1.23	1.05
COc1cccc(/C=C(/C(=O)OCC(N)=O)c2ccccc2)c1
    -0.88	-0.4

Additional compounds follow:
Under each structure – Ba CapD inh	AID504770
O=C(c1ccccc1)N1CCc2ccccc21
    nt	-0.5
CCCN(CCC)S(=O)(=O)c1ccc(C(=O)NNC(=O)OCCc2cccc(C)c2)cc1
    0.41	nt
CSc1ccccc1N1C(=O)CC(Sc2ccccc2C(=O)O)C1=O (stereo not drawn)
    7.98	-0.15
CC(C(=O)NNC(=O)c1ccc2nsnc2c1)c1ccc(Cl)cc1 (stereo not drawn)
    0.58	nt
Cc1ccc(S(=O)(=O)N(C)c2nc3ccccc3nc2N2CCN(Cc3ccccc3)CC2)cc1
    nt	0.4
COc1ccccc1N1CCN(Cc2cn[nH]c2-c2ccccc2)CC1
    -0.245	-0.7
CN(C)CC(O)COc1ccc(C(C)(C)C)cc1 (stereo not drawn)
    2.04	-0.45
CCN1CCC(N)CC1
    nt	0.1
O=C1c2cccc3c(Br)ccc(c23)C(=O)N1Cc1cccnc1
    0.505	nt
O=c1c2ccccc2n2nncc2n1Cc1cccc(F)c1
    3.14	-0.15
O=C1S/C(=C/c2ccc3c(c2)OCO3)C(=O)N1CN1CCCCC1
    nt	-0.4
O=C(Nc1ccc2c(c1)OCO2)c1c(Cl)nc2ccccn12
    nt	-0.3
CCc1cccc(C)c1NC(=O)c1ccco1
    -1.27	-0.4
O=C(c1cc(-c2ccc(F)cc2)no1)N1CCN(c2cccc(Cl)c2)CC1
    -2.33	0.7
CSc1ncccc1C1=N/C(=C\N(C)C)C(=O)O1
    2.18	0.1
CC1CCC2(CC1)C(=O)NC(=O)N2C (stereo not drawn)
    nt	0.15
COCCN(C(=O)Nc1ccccc1OC)c1nc2ccccc2s1
    nt	-0.05

3 entries from above, arranged by SMILES length, low to high.
Under each structure – Ba CapD inh	AID504770
CC1CCC2(CC1)C(=O)NC(=O)N2C (stereo not drawn)
    nt	0.15
CCCN(CCC)S(=O)(=O)c1ccc(C(=O)NNC(=O)OCCc2cccc(C)c2)cc1
    0.41	nt
Cc1ccc(S(=O)(=O)N(C)c2nc3ccccc3nc2N2CCN(Cc3ccccc3)CC2)cc1
    nt	0.4
